NPYLR7 ag: agonists of mosquito NPYLR7 receptor, primary screen, cell-based, Aedes aegypti, calcium fluorescence, mosquito biting behavior; activation, % at 10 µM; hit rate 0.15% among 270,000; HEK293T NPYLR7/Galpha15, GCaMP6s calcium fluorescence; Aedes aegypti neuropeptide Y-like receptor 7 (NPYLR7); in the data active means activation above about 40%;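 further: 0% = vehicle and 100% = reference agonist at the receptor; some compounds past the cut are filed as inactive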
NPYLR7 ag max-min: further read-out of NPYLR7 ag, marked with its call; activation, %; measured here: Max-Min RFU normalised activation; some inactives read as strong as hits;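 span of the calcium signal over five minutes; 0% = vehicle and 100% = native peptide agonist; compound fluorescence can raise it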
Starred values were filed as active, the others as inactive; & = joins results of further samples. The list is partial (hit frequency here may not be typical).

SMILES | NPYLR7 ag | NPYLR7 ag max-min
Cc1noc(-c2cccc(C(F)(F)F)c2)c1C(=O)NC(C)c1cccc2ccccc12 (stereo not given) | 30 | 15
CC(C)OC(=O)c1c(N)sc2c1CCCC2 | -10 | -18
Cc1nc(Cl)cc(N(C)CC(O)CN2CCN(C)CC2)n1 (stereo not given) | 4 | 3
CCCOCCN1CCN(c2cc(N3CCCC3)nc(N)n2)CC1 | 3 | 0
CC(C1CC1)N(C)C(=O)CC(c1ccccc1)C(F)(F)F (stereo not given) | -1 | -1
CNC(=O)c1ccc(CN2CCCC(CCc3cccc(OC)c3)C2)o1 (stereo not given) | -4 | -9
CN(CC(=O)Nc1sccc1C#N)S(=O)(=O)c1ccc(Cl)cc1 | 14 | 4
CSCCC(=O)N1CCC2(CCCN(CC3CC3)C2=O)C1 (stereo not given) | 5 | 3
CC(C)Oc1ccc(NC(=O)C2CCOCC2)cc1Cl | -1 | -1
Cc1cccc(C(=O)N2CCc3c([nH]c4ccccc34)C2CC(C)C)n1 (stereo not given) | 13 | 2
Cc1ccc(C2SCCN2C(=O)Nc2cc(C(F)(F)F)cc(C(F)(F)F)c2)o1 (stereo not given) | -3 | -11
Cc1ccccc1NC(=O)CSc1nc2c(-c3ccccc3)c[nH]c2c(=O)n1C | 0 | -5
CC(=O)Nc1cncc(-c2ccc(O)cc2C)n1 | 2 | -1
OCC1(Cc2ccccc2C(F)(F)F)CCN(C/C=C/c2ccccc2)CC1 | 2&8 | -2&-2
CC=CC(=O)OCC(=O)c1ccc(Br)s1 | 21 | 25
O=C(O)CCn1c(-c2cccs2)n[nH]c1=S | 1&10 | -1&7
O=C(NCC1CC1)C1CCCN(c2ncnc3ccc(F)cc23)C1 (stereo not given) | 2 | 1
O=C(C1CC2CCC1C2)N1CCN(S(=O)(=O)c2ccc(Cl)c(Cl)c2)CC1 (stereo not given) | 0 | 24
O=C(c1ccc(CSc2ccc3ccccc3n2)cc1)N1CCC(O)(Cc2ccccc2)CC1 | -2 | -6
Cc1ccccc1C1CCN(CCNC(=O)C2=NNC(=O)CC2)C1 (stereo not given) | 21 | 13
Oc1oc(-c2ccc(Cl)cc2)nc1C=Nc1ccc(Cl)cc1Cl | 14 | 3
COc1ccc(CNc2nncc(-c3ccc4ccccc4c3)n2)c(OC)c1 | 3 | -2
COc1ccccc1C(=O)NC(CCSC)C(=O)N1CC=C(c2ccccc2)CC1 (stereo not given) | 5 | 3
O=C1CNC(=S)N1Cc1ccccn1 | 11 | 4
c1ccc(C2c3[nH]c4ccccc4c3CCN2Cc2cn[nH]c2C2CCCCC2)nc1 (stereo not given) | 8 | -4
CC1Cc2ccccc2N1C(=O)COC(=O)CNC(=O)c1ccc(Br)cc1 (stereo not given) | -4 | -6
O=C(CSc1nc(=O)n(Cc2ccncc2)c2c1CCC2)Nc1cccc2ccccc12 | -1 | -3
COCCCN(CC(=O)N(Cc1ccc(F)cc1)Cc1cccs1)C(=O)C(Cl)c1ccccc1 (stereo not given) | -2 | 8
Cc1cccc(CN2CCN(c3nc4c(c(=O)[nH]c(=O)n4C)n3Cc3cc(C)ccc3C)CC2)c1 | 1 | 9
COc1ccc(C)cc1S(=O)(=O)Nc1ccccc1F | -3 | -4
C=CCN(CC(=O)N1CCc2sccc2C1c1ccc(F)cc1)S(=O)(=O)c1cc(Cl)ccc1Cl (stereo not given) | 11 | 9
COc1cccc(Cc2nsc(N3CCN(C(=O)/C=C/c4ccc([N+](=O)[O-])cc4)CC3)n2)c1 | 6 | 1
O=C(NC[C@H]1CNC[C@@H]1CO)c1ccccc1Cc1ccc(Cl)cc1 | -1 | -2
CCCn1c(=O)n(Cc2cc(-c3ccccc3)on2)c2ccccc21 | -1 | -1
O=C(CN1C(=O)NC2(CCCc3sccc32)C1=O)NCc1ccccc1 (stereo not given) | 6 | 10
CC1(C(=O)Nc2cccc3ccccc23)CCN1C(=O)c1ccccc1CCc1ccccc1 (stereo not given) | 2 | 2
Cc1cc(C)cc(-n2nc(C(=O)NCc3ccncc3)c(=O)n(Cc3ccccc3C)c2=O)c1 | 0 | 8
Nc1ccc(N=Nc2ccc(N)cc2)cc1 | 18 | 11
CN1CCN(C(=O)NCC2CC(=O)N(Cc3ccccc3)C2)CC1 (stereo not given) | -6 | -7
O=C(c1ccc(-c2cn[nH]c2)nc1)N1CCC(N2CCOCC2)CC1 | 18 | 8
COc1ccc(C(=O)NCCNc2ccc(Nc3ccncc3)nn2)cc1OC | 10 | 0
COc1ccc(CN(C)Cn2nc3n(c2=S)CCCCC3)c(OC)c1 | -3 | -3
COc1ccc(CN(Cc2cccc(C)c2)CC(O)COCC(C)C)cc1 (stereo not given) | 33 | 31
COc1ccccc1N1CCN(C2CCCN(C(=O)c3ccc(F)cc3)C2)CC1 (stereo not given) | 0 | 7
Cc1ccc(C)c(CSc2cc(C)[nH]c(=O)n2)c1 | -1 | -2
NS(=O)(=O)c1ccc(N=Nc2c(-c3ccccc3)[nH]n(-c3ccc([N+](=O)[O-])cc3)c2=O)cc1 | -13 | -14
CCSc1nc(-c2ccccc2)cc(-c2cccs2)c1C#N | 6 | -1
Cc1ccc(-c2nc3ncccn3c2NC2CCCC2)o1 | 7 | 2
COc1cccc(CC(=O)Nc2ccc(NC(=O)C3CC3)cc2C(F)(F)F)c1 | -2 | -3
Clc1ccc2nc(SCc3cn4cc(Cl)ccc4n3)[nH]c2c1 | 3 | 1
OC(Cn1nc(N2CCOCC2)sc1=S)c1cc(F)ccc1F (stereo not given) | -1 | 19
Cc1ccc(C2(O)CCN(c3nccc(-c4ccc(C)nc4C)n3)CC2)nc1 | 5 | 2
Cc1ncsc1CCC(=O)NCc1ccc2c(c1)CC(C)O2 (stereo not given) | 11 | -10
OC(c1cccs1)C1CCN(Cc2ccc(-c3ccn[nH]3)o2)CC1 (stereo not given) | -2 | -3
O=C(O)C1Nc2cc(Cl)cc(Cl)c2C2C=CCC12 (stereo not given) | 1 | -3
O=C1CSC(c2ccccn2)N1c1cccc(Cl)c1 (stereo not given) | -12 | -21
CCN(Cc1ccncc1)Cc1cn[nH]c1-c1ccc(C)c(C)c1 | 8 | 6
CCN(CC)C(=O)Oc1ccc2c(ccn2Cc2ccc(Cl)cc2)c1NC(=O)C1CC1 | 1 | -1
COc1cccc(-n2nnc3c(=O)n(CC(=O)NC4CCCC4)cnc32)c1 | 0 | 3
COc1ccc(Nc2ncccc2C(=O)NC(C)(C)Cc2c[nH]c3ccccc23)cc1 | -6 | -14
Next section:
SMILES | NPYLR7 ag | NPYLR7 ag max-min
CC(=O)N=c1cccc(NC(C)=O)n1O | -8 | -17
Cc1cc(O)c(C(c2ccc(Cl)cc2)c2c(O)cc(C)[nH]c2=O)c(=O)[nH]1 | 6 | 10
CCOc1ccc(N(CC(=O)NCC2CCCO2)S(=O)(=O)c2ccc(SC)cc2)cc1 (stereo not given) | -2 | 1
COc1ccc(F)c(CN2CCCC(O)(CN3CCC(OC)CC3)C2=O)c1 (stereo not given) | -2 | -4
CCc1ccc(-c2nn(-c3ccccc3)cc2C=NO)cc1 | -2 | -5
CCOc1ccc(C2Nc3ccccc3N=C3CC(C)(C)CC(=O)C32)cc1OC (stereo not given) | -2 | -3
CCOC(=O)c1nc2ccccc2nc1N1CCN(C(=O)C2CC2)CC1 | 5 | 3
CCOC(=O)[C@@H]1[C@H](c2ccccc2)[C@@H](NC(=O)c2cccnc2SC)[C@H]2CCCCN21 | -2 | 7
C#CCSc1nc(N)c(C#N)cc1C#N | 0 | -2
CCOC(=O)c1nc2ccccc2nc1N1CCN(S(=O)(=O)c2cccc(F)c2)CC1 | 6 | 3
Cc1ccc(S(=O)(=O)c2cnc(SCC(=O)NC3CCCC3)[nH]c2=O)cc1Cl | 21 | 13
Cc1ccc(C)c(Cn2c(=O)c3c(nc4n(CCCl)c(C)c(C)n34)n(C)c2=O)c1 | -2 | -3
O=C(Nc1ccc(Cl)cc1)N1CCSC1c1cccc(OCc2ccccc2)c1 (stereo not given) | -10 | -8
COc1ccc(-c2c(C)nn(-c3ccccc3)c2C)c(C(=O)N2CCc3ccccc3C2)c1 | -9 | -16
O=C(O)c1cc(-c2ccc(C(F)(F)F)cc2)no1 | -7 | -6
COc1cccc(NC(=O)c2c([N+](=O)[O-])cnn2C)c1 | -5 | -10
CCOC(=O)c1cc(-c2ccc(N3CCN(C(=O)c4ccc5nonc5c4)CC3)cc2)n(-c2ccccn2)n1 | 3 | 0
O=C(O)c1c(S(=O)(=O)N2CCc3ccccc3C2)sc2c1CCNC2 | 2 | 1
CCS(=O)(=O)N1CCc2onc(-c3ccc4c(c3)OCO4)c2C1 | 20 | 5
O=S(=O)(c1ccccc1)c1nnn2c1nc(NCC1CCCO1)c1ccccc12 (stereo not given) | 1 | 2
CN1N=C(C(=O)NCc2ccc(-c3ccc(F)cc3)o2)CCC1=O | 4 | 2
CCOc1ccccc1C1Nc2ccccc2N=C2CC(c3ccc(Cl)cc3)CC(=O)C21 (stereo not given) | -4 | -12
O=C(CCc1ccc2c(c1)OCCO2)NCc1ccccc1F | -1 | -1
FC(F)(F)c1ccc(N2CCCN(Cn3c(=S)oc4ccccc43)CC2)nc1 | 0 | -5
O=C(NC1CCCCC1)c1cc(-c2cccs2)on1 | 1 | 2
C[n+]1cccc(C(=O)NNC(=O)C23CC4CC(CC(C4)C2)C3)c1 | 1 | 0
CC1=C(c2ccccc2)C(c2ccccc2)CC1=O (stereo not given) | -10 | -12
O=C(CN(CC1CCCO1)C(=O)Nc1ccc(Cl)cc1Cl)N(Cc1ccc2c(c1)OCO2)Cc1cccs1 (stereo not given) | 17 | 22
O=C(N=C1N=C2C=CC(Br)=CN2Cc2ccccc21)c1ccc([N+](=O)[O-])o1 | 4 | 2
Cc1cc2cc(C(=O)NCCNc3cccnc3)ccc2o1 | 5 | 5
c1csc(-c2nnc(SCc3nc4ccccc4o3)n2C2CC2)c1 | 0 | 5
Cn1c(=O)c2[nH]c(SCC(=O)O)nc2n(C)c1=O | 2 | 8
Cc1noc(C2CC(=O)N(Cc3ccc(F)cc3Cl)C2)n1 (stereo not given) | 0 | -5
COC(=O)CSc1c(C(C)C)cnc2c1c(=O)n(C)c(=O)n2C | 7 | 13
CN(CC(=O)Nc1cccc(OC2CCCC2)c1)c1ccc(C#N)cn1 | 6 | 2
CC(C)(C)CC(C)(C)c1ccc(OCC(=O)NNC(=O)/C=C/c2ccccc2)cc1 | -2 | -9

Some of the entries so far, in CSV form:
smiles,NPYLR7 ag,NPYLR7 ag max-min
O=S(=O)(c1ccccc1)c1nnn2c1nc(NCC1CCCO1)c1ccccc12 (stereo not given),1,2
CN1N=C(C(=O)NCc2ccc(-c3ccc(F)cc3)o2)CCC1=O,4,2
CCOc1ccccc1C1Nc2ccccc2N=C2CC(c3ccc(Cl)cc3)CC(=O)C21 (stereo not given),-4,-12
O=C(CCc1ccc2c(c1)OCCO2)NCc1ccccc1F,-1,-1
FC(F)(F)c1ccc(N2CCCN(Cn3c(=S)oc4ccccc43)CC2)nc1,0,-5
O=C(NC1CCCCC1)c1cc(-c2cccs2)on1,1,2
C[n+]1cccc(C(=O)NNC(=O)C23CC4CC(CC(C4)C2)C3)c1,1,0
CC1=C(c2ccccc2)C(c2ccccc2)CC1=O (stereo not given),-10,-12
O=C(CN(CC1CCCO1)C(=O)Nc1ccc(Cl)cc1Cl)N(Cc1ccc2c(c1)OCO2)Cc1cccs1 (stereo not given),17,22
O=C(N=C1N=C2C=CC(Br)=CN2Cc2ccccc21)c1ccc([N+](=O)[O-])o1,4,2
Cc1cc2cc(C(=O)NCCNc3cccnc3)ccc2o1,5,5
c1csc(-c2nnc(SCc3nc4ccccc4o3)n2C2CC2)c1,0,5
Cn1c(=O)c2[nH]c(SCC(=O)O)nc2n(C)c1=O,2,8
Cc1noc(C2CC(=O)N(Cc3ccc(F)cc3Cl)C2)n1 (stereo not given),0,-5
COC(=O)CSc1c(C(C)C)cnc2c1c(=O)n(C)c(=O)n2C,7,13
CN(CC(=O)Nc1cccc(OC2CCCC2)c1)c1ccc(C#N)cn1,6,2
CC(C)(C)CC(C)(C)c1ccc(OCC(=O)NNC(=O)/C=C/c2ccccc2)cc1,-2,-9

(cont.)
SMILES | NPYLR7 ag | NPYLR7 ag max-min
O=C(Nc1cccc(F)c1)c1c(O)c2ccccc2[nH]c1=O | -7 | -11
CCCNC(=O)Cn1c(-c2nnc(C(C)C)o2)cc2ccccc21 | -4 | -4
CC1=CC[C@@H]2CN(C(=O)c3ccccc3N3CCOCC3)C[C@@H]2C1 | 3 | 1
CC(C)NC(=O)c1ccc(-c2cc(-c3ccc(N4CCCCC4)cc3)n[nH]2)cc1 | 4 | -3
COCc1c(Br)c(C)nc(OCC(=O)N/N=C\c2ccc(-c3cc([N+](=O)[O-])ccc3Cl)o2)c1C#N | -11 | -17
COc1ccccc1CCC(=O)Nc1ccc2c(c1)CN(C(=O)c1snnc1C)CC2 | 6 | -1
Cn1ccnc1-c1ccc(Oc2ccc(CN3CCCC3)cc2)nn1 | -1 | 2
CO/C=C/C1C(c2ccc([N+](=O)[O-])cc2)C(C#N)=C(c2ccccc2)OC1(OC)OC (stereo not given) | 9 | 13
C=CCN1CCC(C(=O)NC(c2ccc(Cl)cc2)c2ccsc2)CC1 (stereo not given) | -9 | -8
COCCn1c(-c2cccc(C)c2)nn(CN2CCCC(C(N)=O)C2)c1=S (stereo not given) | 5 | 4
CC1CN(C(C(=O)NC2CC2)c2ccc(F)cc2)CC(C)(C)O1 (stereo not given) | 6 | 1
CC1(Cc2ccc(OC(F)(F)F)cc2)C(=O)Nc2ccc(OC(F)(F)F)cc21 (stereo not given) | 2 | 2
CC1(C)ON=C(c2ccco2)N(CCOc2ccc(F)cc2)C1=O | 10 | 2
COc1cccc(-n2c(SC3CCOC3=O)nc3sc4c(c3c2=O)CCC4)c1 (stereo not given) | -3 | -3

Profiles as entered above:
O=C(Nc1cccc(F)c1)c1c(O)c2ccccc2[nH]c1=O is listed as NPYLR7 ag: -7; NPYLR7 ag max-min: -11
CO/C=C/C1C(c2ccc([N+](=O)[O-])cc2)C(C#N)=C(c2ccccc2)OC1(OC)OC (stereo not given) is listed as NPYLR7 ag: 9; NPYLR7 ag max-min: 13

High-throughput results deposited in PubChem by Fisher Drug Discovery Resource Center.
